HPGD inh = blocks human HPGD enzyme activity | purified HPGD, NADH fluorescence kinetic, PGE2 substrate | Potency, µM, for inactives: top-dose activity change, negative = inhibition, actives largely listed as inhibitors | AID 894 | actives 4.3% (n = 150,000) | P15428; active = well fitted inhibition curve with a large enough effect (not every such curve was filed as active); inconclusive = small, poorly fitted or top-dose-only effect, or another doubt; inactive = no such curve, though single readings can be large or run the other way;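 also: top concentration of the series not given in the record; plate controls included wells without enzyme; inactives centre near -10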
Target sequence (P15428 whole entry, looked up): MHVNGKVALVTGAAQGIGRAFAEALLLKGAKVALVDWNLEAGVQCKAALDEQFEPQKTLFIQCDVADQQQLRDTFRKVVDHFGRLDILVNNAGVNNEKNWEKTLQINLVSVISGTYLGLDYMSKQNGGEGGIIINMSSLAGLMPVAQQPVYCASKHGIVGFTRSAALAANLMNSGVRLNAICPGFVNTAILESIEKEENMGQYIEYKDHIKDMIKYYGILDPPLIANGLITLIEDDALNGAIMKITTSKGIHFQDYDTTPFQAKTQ
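20 nM HPGD preincubated 15 min at room temperature with compound in 50 mM Tris-HCl pH 8, 0.01% Tween 20. Started with 1 mM NAD+ and 30 uM prostaglandin E2; NADH fluorescence (360/450 nm) read 5 times over 30-s intervals, last minus first.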
* marks the source's active call; other numbers are inactive results; ? = inconclusive; & = joins results of further samples. % is scaled to controls: 0 for no effect and ±100 for the full control effect; potency is read from the fitted curve at half-maximal effect. Not all compounds are listed; count on the stated rates, not on these rows.

#	SMILES	HPGD inh
1	CC(C)(C)NC(=O)C(c1ccco1)N(Cc1ccc(F)cc1)C(=O)c1snc(C(N)=O)c1N (stereo unspecified)	-11%
2	C=CCOc1c(Br)cc(/C=N/Nc2ccc(C(=O)O)cc2)cc1OCC	-25%
3	NC(=O)c1ccc[n+](CC(=O)OCCC23CC4CC(CC(C4)C2)C3)c1	-7%
4	COc1ccccc1-c1nn2c(-c3ccco3)nnc2s1	?
5	CCC1(CC)C(=O)NN(c2ccccc2)C1=O	-2%
6	COc1cccc(OC)c1NC(=O)Cc1nn(C)c(=O)c2ccccc12	-6%
7	Cc1c(CNCc2cccs2)c(C(=O)O)c(C)n1Cc1ccccc1	-16%
8	CCCCn1ccnc1C(=O)c1cc(S(=O)(=O)N2CCOCC2)ccc1C	-9%
9	O=C(N/N=C/C(Br)=C\c1ccccc1)c1n[nH]c2c1CCC2	?
10	c1ccc2[nH]c(CSc3nc4ccccc4o3)nc2c1	?
11	CCCCCN(CCCCC)C(=O)[C@H](CCC(=O)O)NC(=O)c1ccc(Cl)c(Cl)c1	5%
12	CCN(CCCNC(=O)C1CCC(=O)N1Cc1ccc(F)cc1)c1cccc(C)c1 (stereo unspecified)	-4%
13	CCn1c(SCC(=O)C(C)(C)C)nnc1-c1cccnc1	-25%
14	COc1cccc(NC(=O)c2ccc(CN3CCN(c4ccccc4)CC3)cc2)c1	-18%
15	N#Cc1ccc(-c2ccccc2)nc1SCC(=O)c1cccc(Cl)c1	-12%
16	CN(C)CCNC(=O)c1ccc(COc2ccc(Cl)cc2Cl)cc1	?
17	O=C(Nc1ccc(Cl)cc1)C1=Cc2ccccc2OC1	-20%
18	O=C(CCSc1nnc(-c2ccncc2)o1)Nc1ccc(Cl)cc1	-12%
19	CCOC(=O)CN(C(=O)CNC(=O)c1ccco1)C(C(=O)NC1CCCCC1)c1cccs1 (stereo unspecified)	-14%
20	O=c1cc(-c2ccccc2Cl)oc2c(Br)ccc(O)c12	-28%
21	CCn1cc(C(=O)O)c(=O)c2cc(OC)ccc21	?
22	CC1(c2ccc3c(c2)OCO3)NC(=O)N(CC(=O)NCCC2=CCCCC2)C1=O (stereo unspecified)	-9%
23	CC1=Nc2ccccc2N=C(NC(=O)CSc2nnnn2-c2ccccc2)C1c1ccccc1 (stereo unspecified)	-14%
24	Cc1nc2ccc(NC(=O)c3nn(CC(C)C)c(=O)c4ccccc34)cc2s1	-5%
25	O=C(NCCCn1ccnc1)c1cn(Cc2ccc(F)cc2)nn1	-6%
26	O=c1[nH]c2ccccc2n1C1CCCCC1	-14%
27	C=CCSC1=N/C(=C\c2cc(OC)c3c(c2)OCO3)C(=O)S1	-17%
28	CCCCOc1cccc(C(=O)Nc2ccc(N3CCN(CC)CC3)cc2)c1	1%
29	COc1ccc(CCNC(=O)CCc2ccc(S(=O)(=O)NC(C)C)cc2)cc1	-1%
30	COc1ccc(C)c(Cn2c(-c3nonc3N)nc3ccccc32)c1	-5%
31	O=C(O/N=C1/CCSc2ccccc21)c1ccc(F)cc1	-10%
32	COc1c(F)c(F)c(C(=O)O)c(Nc2ccc(C)cc2)c1F	-18%
33	Cc1ccccc1NS(=O)(=O)c1ccc(N2CCCC2=O)cc1	?
34	c1csc(C2Nc3cccc4cccc(c34)N2)c1	?
35	CN(Cc1nc2ccccc2n1C)S(C)(=O)=O	-3%
36	O=C(c1ccc(Cl)cc1)C1CCN(C(=O)NC2CCCCC2)CC1	-10%
37	CC(C)(C)NC(=O)COC(=O)c1ccc(S(=O)(=O)N2CCCCCC2)cc1	-9%
38	CCn1c(SCC(=O)c2cc(C)n(CC3CCCO3)c2C)nc2ccccc21 (stereo unspecified)	-9%
39	Cc1c(CC(C)C)nc(N)c(C#N)c1-c1ccccc1	?
40	Cn1cnnc1SCC(=O)n1c2ccccc2c2ccccc21	-16%
41	Cc1ccc(-n2[nH]c(C)c(C=Nc3ccc(C)cn3)c2=O)cc1	-7%
42	COc1ccccc1CN1CC[C@@]2(CCCN(S(C)(=O)=O)C2)C1	1%
43	O=C(CN1CCN(c2ccccc2)CC1)Nc1cccc(C(F)(F)F)c1	-14%
44	CS(=O)(=O)c1ccc2nc(NC(=O)Nc3cccc(Cl)c3)sc2c1	-29%
45	O=C(O)c1cccc(Nc2nc(N3CCOCC3)nc(N3CCOCC3)n2)c1	-3%
46	COC(=O)C1C(=O)c2c([nH]c(C(=O)OCCOC(C)C)c2C)CC1C (stereo unspecified)	-4%
47	Cc1nc(NC(=O)CSc2ccc(-c3nc4ccccc4[nH]3)cn2)sc1C	-9%
48	Cc1ccc(C(=O)Cn2c3c(sc2=N)CCCC3)cc1	-19%
49	CC(c1ccccc1)C(CC(=O)O)C(=O)NC1CCCCC1 (stereo unspecified)	-1%
50	Cn1c(CSc2nc3ccccc3s2)nnc1SCC(=O)NCCN1CCOCC1	-17%
51	O=C1c2ccccc2-c2onc3ccc(NCc4ccco4)c1c23	-7%
52	CCC(CC)C(=O)NC12CC3CC(CC(C3)C1)C2	3%
53	Clc1ccc(-c2nn3c(-c4ccccn4)nnc3s2)c(Cl)c1	-23%
54	Clc1nccc2c1ccc1ccccc12	-25%
55	COC(=O)[C@@]1(Cc2ccc(OC)cc2)[C@H]2c3cc(C(=O)N4CCCC4)n(CCc4ccccn4)c3C[C@H]2CN1C(=O)c1ccccc1	-4%
56	Cc1csc(N(C(=O)CCNC(=O)c2ccc([N+](=O)[O-])cc2)c2ccccc2)n1	-7%
57	Cc1c(/C=C2\SC(=O)N(CC(=O)Nc3ccc4c(c3)OCO4)C2=O)c2ccccc2n1C	-10%
58	CCNC(=O)[C@H]1O[C@@H](n2cnc3c(N)nc(NCCc4ccc(CCC(=O)O)cc4)nc32)[C@H](O)[C@H]1O	-22%
59	c1coc(-c2nnc(-c3cccs3)o2)c1	?
60	COc1ccc(C2Sc3ccccc3N(CCN(C)C)C(=O)C2OC(C)=O)cc1 (stereo unspecified)	-2%

Remaining list, next part.
#	SMILES	HPGD inh
61	CC(C)[C@H]1CC[C@@H](C)C[C@H]1O	0%
62	Cc1csc(SCc2nnc(-c3ccc(Cl)cc3)o2)n1	-18%
63	O=C(NC(c1ccccc1)c1ccccc1)C1CCCC1	-7%
64	COC(=O)c1cc2sccc2n1CC(=O)N1CCCc2ccccc21	-9%
65	O=C1CNC(=O)c2c(nc3n2CCC3)N1	-6%
66	COc1nccnc1NS(=O)(=O)c1ccc(NC(=S)NC(=O)c2ccccc2F)cc1	-8%
67	COC(=O)CCCC1=CC2=CC(=O)C(C)(OC(=O)c3cnc4ccccc4n3)C(=O)C2=CO1 (stereo unspecified)	-5%
68	CC(C)=CCNc1ncnc2nc[nH]c12	-13%
69	CC1=C(C)CS(=O)N(c2ccc(S(N)(=O)=O)cc2)C1 (stereo unspecified)	-15%
70	O=C(CSc1ccccc1)Nc1cccnc1	-8%
71	COC(=O)CSc1nnc(-c2cccnc2)n1-c1cccc(OC)c1	-7%
72	Cc1c(Cl)cccc1NC(=O)CSCc1cc(=O)[nH][nH]1	2%
73	Cc1ccc(S(=O)(=O)C(C#N)c2nc3ccccc3nc2N2CCCC2)cc1C (stereo unspecified)	-25%
74	Cc1c(-c2ccccc2)oc2c(C(=O)N3CCN(c4ccccc4F)CC3)cccc2c1=O	-5%
75	CCn1c(COc2ccc(C)cc2)nnc1SCC(=O)C(C)(C)C	-8%
76	COCCSc1nc2c(c(=O)[nH]c(=O)n2C)n1CCC(C)C	-16%
77	CCCN(CCC)C(=O)SCC	-2%
78	O=[N+]([O-])c1ccc(S(=O)(=O)Cc2ccccc2)c([N+](=O)[O-])c1	-15%
79	CC(=O)OC1CC(OC(C)=O)[C@]2(C)C(CC(OC(C)=O)[C@]3(C)C2CC[C@@]2(C)C(c4ccoc4)OC(=O)C4O[C@]432)C1(C)C (stereo partly specified)	7%
80	NC(N)=Nc1nc(C2COc3ccccc3O2)cs1 (stereo unspecified)	-15%
81	CCCC1(C(=O)OC)NC(c2cccc(F)c2)C2C(=O)N(CC)C(=O)C21 (stereo unspecified)	7%
82	COCCn1c(SCC(=O)Nc2ccc(NC(=O)c3ccco3)c(OC)c2)nc2ccccc2c1=O	?
83	COCCNC(=O)c1onc(CSc2ccc(Cl)cc2)c1C(=O)O	-16%
84	CN1c2ccccc2N(C)C1c1c(O)ccc2ccccc12	-8%
85	Cc1nc2ccc(S(=O)(=O)NC(C(=O)NCc3ccc4c(c3)OCO4)C(C)C)cc2s1 (stereo unspecified)	-2%
86	COc1ccc(CNC(=O)COC(=O)CCCOc2ccc(Cl)cc2Cl)cc1OC	?
87	CCOc1cc(C)nc(NCc2ccccc2)n1	-8%
88	Clc1ccc(Nc2ccc(-n3ccnc3)nn2)cc1Cl	-3%
89	O=c1[nH]c(CN2CCCCC2)nc2c1C1(CCCCC1)Cc1ccccc1-2	-10%
90	COc1ccc(CN2CCN(C(=O)c3ccco3)CC2)cc1OCc1ccccc1	-4%
91	C/C(=C/Cc1c(O)cc2oc(C)cc(=O)c2c1O)COC1OC(CO)C(O)C(O)C1O (stereo unspecified)	-8%
92	COc1ccc(NC(=O)CN(c2cccc(C(F)(F)F)c2)S(C)(=O)=O)cc1OC	-4%
93	O=C(CC1Nc2ccccc2NC1=O)NCCCN1CCCCCC1 (stereo unspecified)	-9%
94	O=C(COc1ccc(S(=O)(=O)NC2CCCCC2)cc1)NCc1cccnc1	-5%
95	COC(=O)C1=C(C)N(Cc2ccco2)C(=O)N[C@H]1c1ccc(Br)cc1	-10%&-10%
96	Cc1c(C(=O)NC2CCCc3ccccc32)oc2ccc(S(=O)(=O)N3CCCC3)cc12 (stereo unspecified)	-12%
97	O=C(CSc1n[nH]c(=O)n1C1CC1)Nc1cc(Cl)ccc1Oc1ccccc1	-11%
98	O=C(CSc1nnc(CNc2ccc(F)cc2)o1)N1CCN(C(=O)c2ccco2)CC1	-1%
99	Cc1cccc(C(=O)NNC(=O)C2CCCO2)c1 (stereo unspecified)	-5%
100	COC(=O)c1sccc1NC(=O)c1ccc(Cl)s1	-14%

Down the list, quoted from above:
Compounds 20–27 in HPGD inh, in turn: -28%, ?, -9%, -14%, -5%, -6%, -14%, -17%

Going on with the list:
#	SMILES	HPGD inh
101	CC(Oc1ccc2c(-c3ccccc3)cc(=O)oc2c1)C(=O)O (stereo unspecified)	?
102	CC1=C(C(=O)Nc2ccccc2)C(c2ccco2)C(C#N)=C(SCC(=O)Nc2cccc(C)c2C)N1 (stereo unspecified)	?
103	Cc1ccc(-c2nn3c(C)nnc3s2)cc1NC(=O)c1cccs1	?
104	Cc1nnc(NC(=O)CCCOc2ccccc2)s1	-17%
105	CCN(CC)C(=O)c1ccccc1NS(=O)(=O)c1ccc(C)cc1	5%
106	CC(=O)NC1=NN(c2ccccc2)C(=O)C1	-9%
107	Cc1cccc(C(=O)N[C@H](C(=O)Nc2cc(S(=O)(=O)N3CCCCC3)ccc2C)C(C)C)c1	-9%
108	O=C(O)/C=C\C(=O)Nc1ccc(Oc2ccccc2)cc1	-18%
109	CCc1c(C)nc2c(C#N)c[nH]n2c1=O	-26%
110	Cc1cccc2c(C(=O)O)c3c(nc12)CCCCC3	-7%
111	COc1ccc2sc3ccccc3c(=O)c2c1OC	6.3µM*
112	CC(N=C(NC#N)Nc1ccncc1)C(C)(C)C (stereo unspecified)	-17%&2%&-13%
113	Cc1cccc(C)c1OCCCCc1c(C)n[nH]c1C	-2%
114	O=C(NCc1cccs1)C(NS(=O)(=O)c1cccc2nsnc12)c1ccccc1 (stereo unspecified)	-14%
115	COc1ccc(OC)c(NC(=O)CCNS(=O)(=O)c2cccs2)c1	-1%
116	CC1S/C(=N/N=C2CCC(C(C)(C)C)CC2)NC1=O (stereo unspecified)	-10%
117	Clc1ccc2c(c1)C1OCCC1C(c1ccco1)N2 (stereo unspecified)	?
118	COc1cccc(-c2cc(=O)c3cc(NC(=O)c4ccccc4)ccc3[nH]2)c1	-4%&-17%
119	CN(C)S(=O)(=O)N1CCC(c2ccc(F)cc2)C(COc2ccc3c(c2)OCO3)C1 (stereo unspecified)	-25%
120	COc1ccc2c(c1)O[C@@H](c1ccc3c(c1)OCO3)[C@H](OC(=O)NC1CCCC1)C2=O	-5%

In a second layout: entries from further up.
[120] COc1ccc2c(c1)O[C@@H](c1ccc3c(c1)OCO3)[C@H](OC(=O)NC1CCCC1)C2=O
- HPGD inh: -5%
[112] CC(N=C(NC#N)Nc1ccncc1)C(C)(C)C (stereo unspecified)
- HPGD inh: -17%&2%&-13%

More compounds follow:
#	SMILES	HPGD inh
121	Cc1cccc(CC2CC(=O)N(c3ccccc3)C2=O)c1 (stereo unspecified)	-12%
122	CC(=O)N1CCC2(CCN(Cc3cc(C(F)(F)F)cc(C(F)(F)F)c3)CC2)CC1	-10%
123	O=Cc1cccn1-c1sc2c(c1C(=O)O)CCCC2	-10%
124	CCCCc1cc2c(c(NC(=O)CC)n1)c(=O)oc1ccccc12	-23%
125	CCCOc1ccc(-c2c(=O)n(OCc3ccc([N+](=O)[O-])cc3)c3ccccc3[n+]2[O-])cc1	-14%
126	COC(=O)C1=CN(CC2CCCO2)C=C(C(=O)OC)C1c1cc(OC)c(OC)c(OC)c1 (stereo unspecified)	?
127	CC(CN1CCOCC1)OC(=O)c1cccc(Br)c1 (stereo unspecified)	-7%
128	Cc1cc(C(=O)CSc2nc3ccccc3[nH]2)c(C)n1CC1CCCO1 (stereo unspecified)	16µM*

Sorted by SMILES length (lowest first): part of the list above.
#	SMILES	HPGD inh
128	Cc1cc(C(=O)CSc2nc3ccccc3[nH]2)c(C)n1CC1CCCO1 (stereo unspecified)	16µM*
126	COC(=O)C1=CN(CC2CCCO2)C=C(C(=O)OC)C1c1cc(OC)c(OC)c(OC)c1 (stereo unspecified)	?
125	CCCOc1ccc(-c2c(=O)n(OCc3ccc([N+](=O)[O-])cc3)c3ccccc3[n+]2[O-])cc1	-14%

Bioassay records: PubChem BioAssay, National Center for Advancing Translational Sciences (NCATS)
